ALR inh: human ALR oxidase inhibition via reduced H2O2; P55789; purified ALR, DTT oxidation, H2O2 HRP-luminol luminescence; hit rate 3.8% among 290,000; inhibition, % (no concentration beside the values);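 active = mean and each replicate at 75% or more; inconclusive = only one of the two met; inactive = neither met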;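 also: stock transfer was 7.5 nL into about 7.5 µL; 0% = neutral wells and 100% = wells with inactivated enzyme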
Target sequence (P55789 whole entry, looked up): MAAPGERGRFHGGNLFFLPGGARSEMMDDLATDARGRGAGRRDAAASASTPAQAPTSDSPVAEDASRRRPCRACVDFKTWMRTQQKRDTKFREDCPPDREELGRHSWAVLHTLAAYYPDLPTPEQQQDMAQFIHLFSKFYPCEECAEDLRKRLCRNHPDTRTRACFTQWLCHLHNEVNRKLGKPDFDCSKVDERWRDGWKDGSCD
LANA-H2B inh: blocks KSHV LANA binding to histone H2A/H2B | Q9QR71 | cell-free LANA-H2A/H2B peptide, fluorescence polarization | inhibition, % (no concentration beside the values) | hit rate 0.6% among 320,000 | AID 2629; in the data active = inhibition mostly above about 10%, no sharp cut-off; inactive = mostly below about 6.7%;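 also: stock transfer was 7.5 nL into about 10 µL; 0% = median of vehicle wells and 100% = median of positive control wells; one replicate is shown; the record names a cut of 25% in any replicate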
rRNA inh HTS: selective bacterial rRNA inhibition in E. coli. AID 720706. hit rate 1.6% among 350,000. GFP signal change (wild-type ribosome), % (concentration not given with the values). E. coli WT GFP vs humanized-ribosome RFP mutants, fluorescence, 24 h; stronger effect = lower value; DMSO median 0, no signal -100;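 active = significant combined selectivity score with lowered wild-type GFP, culture density cut under 30%, mutant RFP and density less affected; inactive = any of these conditions unmet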; also: one replicate is shown; some compounds called inactive have numbers as strong as hits
B2AR ag: agonists of human beta-2 adrenergic receptor inducing internalization; Am2.2-beta2AR cells, FAP receptor internalization, flow cytometry; reference of the scale not given here; P07550; hit rate 0.43% among 340,000; response, % (test concentration not listed);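 active = response above a set limit, near 3 SD of response in nonfluorescent compounds, cut at about 42% in these data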;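 also: stock transfer was 100 nL into about 11 µL; a reference agonist was the positive control; negative values mostly stem from fluorescent compounds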
Target sequence (P07550 whole entry, looked up): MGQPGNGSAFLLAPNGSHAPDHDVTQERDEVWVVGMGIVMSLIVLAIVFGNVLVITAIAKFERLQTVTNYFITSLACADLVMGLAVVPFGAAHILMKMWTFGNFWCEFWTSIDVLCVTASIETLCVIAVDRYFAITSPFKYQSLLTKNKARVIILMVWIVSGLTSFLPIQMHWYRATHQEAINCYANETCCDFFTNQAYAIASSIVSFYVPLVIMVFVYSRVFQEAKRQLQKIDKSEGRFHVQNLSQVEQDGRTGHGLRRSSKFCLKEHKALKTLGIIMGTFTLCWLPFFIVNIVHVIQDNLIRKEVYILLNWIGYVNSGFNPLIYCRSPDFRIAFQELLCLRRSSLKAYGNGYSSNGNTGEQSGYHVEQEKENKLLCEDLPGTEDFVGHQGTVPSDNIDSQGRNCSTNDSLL
Calb FLC: affects C. albicans growth with fluconazole; C. albicans CaCi-2 (fluconazole-resistant clinical isolate) + fluconazole, Alamar Blue growth, 48 h; growth inhibition, % (no concentration beside the values); hit rate 0.57% among 300,000; AID 1979;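 active = most replicates above 75%; inconclusive = exactly half above 75%; inactive = most below 75%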;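 also: all wells also contain fluconazole at 8 µg/ml as a sub-toxic cotreatment; 0% = median of DMSO wells and 100% = median of geldanamycin control wells; wells of about 8 µL received 7.5 nL stock; the first replicate is given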
Bfl-1 A1 inh: inhibitors of the anti-apoptotic protein A1, read as caspase activation; AID 2462; hit rate 0.066% among 330,000; MEF A1-2A-BIM cells, Caspase-Glo 3/7 luminescence, 3 h; percent of clofoctol response, vehicle zero; caspase activation, % (concentration not given with the values);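 active = over half of replicate activation scores above 10%, or exactly half above 10 with the replicate mean above 10; inconclusive = replicate mean below 10 yet half the replicates above 10; inactive = over half of replicates below 10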;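 also: wells of about 30 µL received 50 nL stock; many hits fall short of the cut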
Beta cell apopt: beta cell apoptosis inhibition; protection from apoptosis, % (test concentration not listed); AID 435005; INS-1E cytokine-induced death, ATP luminescence, 48 h; percent of positive-control rescue, neutral wells zero; hit rate 0.8% among 300,000;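 active = all replicates at 75% or more, or half of them and the mean; inconclusive = half reach 75% but not the mean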;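 also: 0% = cytokine-treated negative control wells and 100% = positive control rescue; higher means more ATP so stronger rescue from cytokine killing; wells of about 40 µL received 100 nL stock; the first replicate is given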
T cruzi repl: T. cruzi replication inhibition. T. cruzi beta-gal in NIH3T3, luminescence, 90 h. inhibition, % (no concentration beside the values). hit rate 1.4% among 300,000. AID 1885;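 active = mean inhibition across valid replicates above about 55%, limit read from the data; inconclusive = mean below that limit but half or more replicates reach it; inactive = mean below it, under half of replicates reach it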;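 also: signal also drops with host cell toxicity which is not excluded here; 0% = plate median of DMSO wells and 100% = zero luminescence signal; higher percent means less beta-gal luminescence so fewer parasites; stock transfer was 50 nL into about 50 µL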
rRNA inh HTS OD600: further read-out of rRNA inh HTS, marked with its call; OD600 change, %; measured here: OD600 growth;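 optical density of the mix in the first replicate; 0 = DMSO median and -100 = no signal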
rRNA inh HTS RFP: recorded beside rRNA inh HTS, whose call it bears; RFP signal change, %; measured here: RFP humanized mutant strains;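 first replicate; 0 = DMSO median and -100 = no signal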
* hit, by the source's call.

Screening O=c1/c(=C/c2ccccn2)sc2n1CN(c1ccccc1)CN=2 returned ALR inh 4, LANA-H2B inh 1.8, B2AR ag 1, Calb FLC -8, Bfl-1 A1 inh -0.4, Beta cell apopt -7 and T cruzi repl 12.
CN(CC(=O)NCC1COc2ccccc2O1)S(=O)(=O)c1ccc(Cl)cc1 (stereo unspecified) was read as ALR inh -39, LANA-H2B inh 5.0, rRNA inh HTS -12, B2AR ag -4, Bfl-1 A1 inh -0.6, Beta cell apopt 8, rRNA inh HTS OD600 -14 and rRNA inh HTS RFP 1.3.
For Cc1ccc(C)c(Cn2nnc3c(=O)[nH]c(C4CCCN(S(=O)(=O)Cc5ccccc5)C4)nc32)c1 (stereo unspecified) the results were ALR inh -1, LANA-H2B inh 4.6, rRNA inh HTS 0, B2AR ag 2, Calb FLC 35, Bfl-1 A1 inh -1.1, Beta cell apopt -1, T cruzi repl 2, rRNA inh HTS OD600 -2 and rRNA inh HTS RFP 1.1.
For CC(=O)c1c(C)nn(C(=O)N2CCOCC2)c1C the results were ALR inh -10, LANA-H2B inh -5.0, B2AR ag 2, Calb FLC 3, Bfl-1 A1 inh -0.3, Beta cell apopt 1 and T cruzi repl 1.
CCOC(=O)c1c(NC(=O)C2CCCO2)sc(C(=O)OC(C)(C)C)c1C (stereo unspecified) was read as ALR inh -3, LANA-H2B inh -0.9, B2AR ag -3, Calb FLC -40, Bfl-1 A1 inh 0.2, Beta cell apopt 1 and T cruzi repl -3.
O=S(=O)(c1ccccc1)c1nc(-c2cccs2)oc1NCCCn1ccnc1 was read as ALR inh 7, LANA-H2B inh 0.6, B2AR ag 4, Calb FLC -1, Bfl-1 A1 inh -0.2 and T cruzi repl -2.
Screening COc1ccc(OC)c(N(CC(=O)Nc2ccccc2C(=O)NCc2ccco2)S(C)(=O)=O)c1 returned ALR inh 1, LANA-H2B inh 2.9, B2AR ag 1, Calb FLC -4, Bfl-1 A1 inh 0.3, Beta cell apopt 5 and T cruzi repl 5.
`COc1cc(/C=N/NC(=O)CC#N)cc(Br)c1O` gave ALR inh 12, LANA-H2B inh -12, rRNA inh HTS -13, B2AR ag -9, Calb FLC 4, Bfl-1 A1 inh 0.3, Beta cell apopt 0, T cruzi repl -9, rRNA inh HTS OD600 -4 and rRNA inh HTS RFP -3.0.
For COc1ccc(N2CCOCC2)c(NC(=O)COc2cccc(C)c2)c1 the results were ALR inh -2, LANA-H2B inh 2.2, rRNA inh HTS 6, B2AR ag 2, Bfl-1 A1 inh -0.5, Beta cell apopt -13, T cruzi repl 6, rRNA inh HTS OD600 34 and rRNA inh HTS RFP -2.1.
Screening Cc1cccc(C(=O)OCc2cc(=O)oc3c(C)c(C)ccc23)c1O returned ALR inh 0, LANA-H2B inh 7.3, B2AR ag 14, Calb FLC -1, Bfl-1 A1 inh 0.7, Beta cell apopt -2 and T cruzi repl -1.

4 records picked at random from those above:
For CC(=O)c1c(C)nn(C(=O)N2CCOCC2)c1C the results were ALR inh -10, LANA-H2B inh -5.0, B2AR ag 2, Calb FLC 3, Bfl-1 A1 inh -0.3, Beta cell apopt 1 and T cruzi repl 1.
`COc1cc(/C=N/NC(=O)CC#N)cc(Br)c1O` gave ALR inh 12, LANA-H2B inh -12, rRNA inh HTS -13, B2AR ag -9, Calb FLC 4, Bfl-1 A1 inh 0.3, Beta cell apopt 0, T cruzi repl -9, rRNA inh HTS OD600 -4 and rRNA inh HTS RFP -3.0.
Screening COc1ccc(OC)c(N(CC(=O)Nc2ccccc2C(=O)NCc2ccco2)S(C)(=O)=O)c1 returned ALR inh 1, LANA-H2B inh 2.9, B2AR ag 1, Calb FLC -4, Bfl-1 A1 inh 0.3, Beta cell apopt 5 and T cruzi repl 5.
CN(CC(=O)NCC1COc2ccccc2O1)S(=O)(=O)c1ccc(Cl)cc1 (stereo unspecified) was read as ALR inh -39, LANA-H2B inh 5.0, rRNA inh HTS -12, B2AR ag -4, Bfl-1 A1 inh -0.6, Beta cell apopt 8, rRNA inh HTS OD600 -14 and rRNA inh HTS RFP 1.3.

Other results.
O=C1CCCC(O)=C1N=Nc1cccc(C(=O)O)c1 was read as ALR inh -13, LANA-H2B inh 3.5, rRNA inh HTS 20, B2AR ag -4, Calb FLC -1, Bfl-1 A1 inh -0.7, Beta cell apopt 6, T cruzi repl -2, rRNA inh HTS OD600 11 and rRNA inh HTS RFP -1.3.
`Cc1ccc(C(=O)NCCn2ccc3ccccc32)cc1[N+](=O)[O-]` gave ALR inh 5, LANA-H2B inh 1.6, rRNA inh HTS -23, B2AR ag -5, Calb FLC 19, Bfl-1 A1 inh -0.4, Beta cell apopt -3, T cruzi repl -8, rRNA inh HTS OD600 -26 and rRNA inh HTS RFP -2.1.
Screening COc1ccc(NC2=CC(c3cccc(OC)c3)N(c3ccc(OC)cc3)C2=O)cc1 (stereo unspecified) returned ALR inh -13, LANA-H2B inh -0.1, B2AR ag 3, Calb FLC 0, Bfl-1 A1 inh 1.1, Beta cell apopt -7 and T cruzi repl 20.
Cc1nc2sccc2c(=O)n1-c1cccc(Cl)c1 was read as ALR inh 1, LANA-H2B inh 1.7, B2AR ag -4, Calb FLC 7, Bfl-1 A1 inh 0.2, Beta cell apopt -4 and T cruzi repl -16.
`O=C(c1cccc([N+](=O)[O-])c1)N1CC2C3C=CC(C3)C2C1` (stereo unspecified) gave ALR inh -11, LANA-H2B inh -0.7, rRNA inh HTS 9, B2AR ag -7, Calb FLC 7, Bfl-1 A1 inh 0.6, Beta cell apopt -4, T cruzi repl 3, rRNA inh HTS OD600 12 and rRNA inh HTS RFP 0.1.
`FC(F)Oc1ccc(/C=N/c2c(-c3ccc(OC(F)F)cc3)nc3n2CCS3)cc1` gave ALR inh 3, LANA-H2B inh -0.9, B2AR ag 3, Calb FLC -1, Bfl-1 A1 inh -0.2, Beta cell apopt -9 and T cruzi repl 10.
For COc1ccc2cc3c(N)nn(C(=O)c4ccc(F)cc4)c3nc2c1 the results were ALR inh 1, LANA-H2B inh 2.5, rRNA inh HTS 5, B2AR ag 1, Calb FLC 15, Bfl-1 A1 inh -0.8, Beta cell apopt -28, T cruzi repl 3, rRNA inh HTS OD600 4 and rRNA inh HTS RFP 8.4.
Screening CC(C)Oc1nc(-c2ccccc2O)nc2ccccc12 returned ALR inh 1, LANA-H2B inh -0.3, B2AR ag 22, Calb FLC 5, Bfl-1 A1 inh -0.1, Beta cell apopt -6 and T cruzi repl 9.
For COc1ccc(N2CCN(C(=O)CCNC(=O)Cn3ccc4ccccc4c3=O)CC2)cc1 the results were ALR inh 85*, LANA-H2B inh -0.4, rRNA inh HTS -2, B2AR ag 2, Calb FLC inconclusive, Bfl-1 A1 inh 0.2, Beta cell apopt -1, T cruzi repl -5, rRNA inh HTS OD600 -18 and rRNA inh HTS RFP -2.0.
`CCC(C)NCCOCCSc1ccc(Cl)cc1` (stereo unspecified) gave ALR inh -5, LANA-H2B inh 2.9, B2AR ag 6, Calb FLC -27, Bfl-1 A1 inh -0.2, Beta cell apopt -4 and T cruzi repl 31.
CC(C)(C)C1CCC(=O)N(CCC#N)CC1 (stereo unspecified) was read as ALR inh -1, LANA-H2B inh 1.2, rRNA inh HTS 13, B2AR ag 6, Calb FLC -1, Bfl-1 A1 inh 0.1, Beta cell apopt 3, T cruzi repl -22, rRNA inh HTS OD600 10 and rRNA inh HTS RFP 2.0.
`COc1cccc(OC)c1C(=O)NC(=S)NNC(=O)[C@H]1C[C@@H]1c1ccccc1` gave ALR inh 33, LANA-H2B inh 0.3, rRNA inh HTS 1, B2AR ag -1, Calb FLC -7, Bfl-1 A1 inh 0.9, T cruzi repl -59, rRNA inh HTS OD600 4 and rRNA inh HTS RFP 3.2.
COc1cccc(NC(=O)CCN2C(=O)c3ccccc3S2(=O)=O)c1 was read as ALR inh -11, LANA-H2B inh 0.5, rRNA inh HTS 1, B2AR ag -6, Calb FLC 2, Bfl-1 A1 inh 0.6, Beta cell apopt 3, T cruzi repl -13, rRNA inh HTS OD600 5 and rRNA inh HTS RFP -3.9.
`Clc1ccc(C2CC(c3cccs3)n3ncnc3N2)cc1Cl` (stereo unspecified) gave ALR inh -6, LANA-H2B inh 5.5, rRNA inh HTS -51, B2AR ag 3, Calb FLC 39, Bfl-1 A1 inh 1.7, Beta cell apopt 6, T cruzi repl 27, rRNA inh HTS OD600 -71 and rRNA inh HTS RFP -13.
`NNC(=O)CNC(c1ccccc1)c1cc(Br)ccc1NC(=O)c1ccc(Br)cc1` (stereo unspecified) gave ALR inh -3, LANA-H2B inh 0.4, B2AR ag 13, Calb FLC -4, Bfl-1 A1 inh 1.4, Beta cell apopt -1 and T cruzi repl 0.
`Cn1nc(C(=O)OCc2ccccc2F)c2ccccc2c1=O` gave ALR inh 18, LANA-H2B inh 6.1, rRNA inh HTS -9, B2AR ag -1, Calb FLC 19, Bfl-1 A1 inh -0.8, Beta cell apopt -2, T cruzi repl -7, rRNA inh HTS OD600 -17 and rRNA inh HTS RFP -5.0.
For Cn1nc(C(=O)Nc2cccc(S(N)(=O)=O)c2)c2ccccc2c1=O the results were ALR inh -6, LANA-H2B inh 4.3, rRNA inh HTS 10, B2AR ag -4, Calb FLC -1, Bfl-1 A1 inh -0.4, Beta cell apopt 1, T cruzi repl 0, rRNA inh HTS OD600 5 and rRNA inh HTS RFP -2.3.
CC(C)(C)c1ccc(OCCCN2CCCC2)cc1 was read as ALR inh -2, LANA-H2B inh -0.5, rRNA inh HTS 7, B2AR ag 2, Calb FLC -8, Bfl-1 A1 inh 0.3, Beta cell apopt -7, T cruzi repl 20, rRNA inh HTS OD600 5 and rRNA inh HTS RFP 1.4.
`COc1ccc(NS(=O)(=O)c2csc(C(=O)N3CCCC3)c2)cc1` gave ALR inh -3, LANA-H2B inh -3.1, rRNA inh HTS -2, B2AR ag -2, Calb FLC -12, Bfl-1 A1 inh 0.5, Beta cell apopt 1, T cruzi repl -16, rRNA inh HTS OD600 -3 and rRNA inh HTS RFP -0.7.
Cc1cc(NC(=O)Nc2ccccc2Cl)no1 was read as ALR inh 3, LANA-H2B inh -5.0, rRNA inh HTS 2, B2AR ag 9, Calb FLC -15, Bfl-1 A1 inh -3.1, T cruzi repl -11, rRNA inh HTS OD600 -5 and rRNA inh HTS RFP 1.9.
COCc1c(C(=O)N2CCN(Cc3ccc4c(c3)OCO4)CC2)oc2ccccc12 was read as ALR inh -3, LANA-H2B inh -2.0, rRNA inh HTS -19, B2AR ag 8, Bfl-1 A1 inh -1.5, Beta cell apopt -5, rRNA inh HTS OD600 -18 and rRNA inh HTS RFP 1.4.

Some of the compounds tested. The share of hits here may be higher or lower than overall.
